From PubChem
N370S GC mod = qHTS Assay for Inhibitors and Activators of N370S glucocerebrosidase as a Potential Chaperone Treatment of Gaucher Disease; AID 2101, 2009; Lysosomal acid glucosylceramidase (Homo sapiens), P04062; N370S GC spleen homogenate, 4MU-glucoside fluorescence; Potency, µM (titrated, usually from 59.4 µM), for the others: at the top dose activity change, negative = inhibition, most hits filed as inhibitors; 330,000 tested, 0.092% active;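 also: 0% = full enzyme activity and -100% = no enzyme basal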
DT40 TDP1 CPT = qHTS for Inhibitors of human tyrosyl-DNA phosphodiesterase 1 (TDP1): qHTS in cells in presence of CPT; chicken DT40 Tdp1-/-;hTDP1 cells + 20 nM CPT, ATP luminescence, 48 h; Potency, µM (doses to about 46.2 µM), without a hit: top-dose activity change, negative = growth inhibition, most hits filed as inhibitors; 420,000 tested, 12% active; AID 686979, 2013; also: nearly all actives have a fitted effect of over 55% in size
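Cell growth measured by CellTiter-Glo luminescence after a minimum 48 h, 37 C compound exposure with 20 nM CPT in Tdp1-knockout DT40 cells stably expressing hTDP1, seeded 400/well; qHTS titration format.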
An asterisk follows results filed as active; ? = inconclusive; & = joins results of further samples. Calls follow the shape of the dose curve; as a rule, active = well fitted curve in the direction sought with a large enough effect; inconclusive = small, poorly fitted or top-dose-only effect, or another doubt; inactive = no such curve, though single readings can be large; an effect the other way counts as inactive or inconclusive. Unless noted, % is scaled to controls: 0 for no effect and ±100 for the full control effect; potency is read from the fitted curve at half-maximal effect. The list is partial; most or all hits stand in other tables.

SMILES	N370S GC mod	DT40 TDP1 CPT
N#Cc1c(NC(=O)CSc2ncc(-c3ccccc3)n2CC2CCCO2)sc2c1CCCC2 (stereo not given)	?	?
O=C(CN1N=C(c2ccc(Cl)cc2)CCC1=O)NCc1cccnc1	-8%	0%
COc1cc(CN2CCN(C3CCC3)CC2CCO)cc(OC)c1 (stereo not given)	-2%	-5%
CC(=O)c1ccc(N2CCN(C(=O)C3CCN(S(=O)(=O)c4ccc5c(c4)CC(C)N5C(C)=O)CC3)CC2)cc1 (stereo not given)	-9%	18µM*
COc1cc(CNC(=O)c2cccc(COc3ccc(Cl)cc3)c2)cc(OC)c1	20%	?
O=C(CNC(=O)c1ccccc1F)NCCOc1cccc(Cl)c1Cl	-1%	7%
CC(C)Oc1ccc(NC(=O)c2ccncc2)cc1	-6%	-24%
CCOC(=O)Cn1nc(-c2ccccc2)nc1-c1ccccc1	6%	-3%
COc1ccc(S(=O)(=O)NCC(=O)NCc2cc(=O)n(C)c(=O)n2C)cc1C	-11%	2%
CCN(CC)/C(N)=N/c1nc(C)cc(C)n1	2%	6%
CC(C)C[C@H](NS(=O)(=O)c1ccc(Br)cc1)C(=O)O	-2%	-12%
CCN1CCN(Cc2ccc(NC(=O)c3ccc(C)c(NC(=O)c4nccnc4N)c3)cc2C(F)(F)F)CC1	17%	?
COc1ccc(C=NC(CO)C(O)c2ccc([N+](=O)[O-])cc2)cc1 (stereo not given)	-19%	12%
CCNc1nc(NCC)nc(-n2nc(C)cc2C)n1	-6%	2.3µM*
COc1ccc(S(=O)(=O)NC(C)CCc2ccccc2)cc1 (stereo not given)	0%	?
O=c1c2ccccc2nc2n1CCN2Cc1ccc(Cl)cc1	15%	18µM*
Cc1ccc(N(C(=O)c2ccco2)C(C(=O)NC2CCCC2)c2cccnc2)cc1C (stereo not given)	-18%	-6%
Cc1cc(O)c(C(C)C)cc1NS(=O)(=O)c1ccccc1	4%	8%
Cc1ccc(COc2ccc(/C=N/NC(=O)c3ccc(CN4CCOCC4)cc3)cc2)cc1	-3%	-5%
CCN1CCN(S(=O)(=O)c2cc3c(cc2Cl)NC(=O)CO3)CC1	-1%	1%
CCOC(=O)c1ccc(N2CCN(c3ccccc3F)CC2)c(NC(=O)Nc2ccccc2)c1	1%	16µM*
O=C(NCc1ccccc1)c1ccc(CS(=O)(=O)c2ccccc2)o1	-2%	2.6µM*
COC(=O)c1cc(COc2ccc3oc(C)c(C(=O)OC)c3c2)c(C)o1	18%	?
COc1ccc(OCC(O)CNCCNc2nccc(C(F)(F)F)n2)cc1 (stereo not given)	-19%	-6%
COc1cccc(Oc2nc3ncn(Cc4ccccc4)c3c(=O)n2C)c1	0%	-20%
O=C(NC(=S)NCC1CCCO1)c1ccccc1[N+](=O)[O-] (stereo not given)	14%	4%
CCC1CCCCN1CCCNC(=O)C1CCN(Cc2nc(-c3ccc(Cl)cc3)oc2C)CC1 (stereo not given)	-4%	3.7µM*
O=C(Nc1ccc(Cl)cn1)c1cccc(S(=O)(=O)N2CCOCC2)c1	-10%	-29%
CCn1c(SCC(=O)NCc2ccco2)nc2c(c1=O)SC(C)C2 (stereo not given)	-5%	-26%
CCCC1(c2ccccc2)NC(=O)N(CC(=O)Nc2ccccc2C(F)(F)F)C1=O (stereo not given)	-19%	4%
Cc1ccc(CNS(=O)(=O)NCc2ccc(Cl)cc2)cc1	-1%	-15%
O=C(Nc1nnc(COc2ccc(F)cc2)s1)c1cccs1	26%	-14%
COc1cccc(NC(=O)Nc2nc(SC)ns2)c1	0%	9.2µM*
C=CCCC(=O)Nc1nc(C)c(-c2csc(Nc3cc(OC)ccc3OC)n2)s1	-3%	2.6µM*
Cc1nn(-c2ccccc2)c(Cl)c1/C=N/NC(=O)c1ccccc1F	2%	-25%
CCOC(=O)C1CCN(C(=O)C2CCCN(S(=O)(=O)c3ccc(OC)c(Cl)c3)C2)CC1 (stereo not given)	-7%	16µM*
c1cnc(N2CCN(Cc3ccc4c(c3)OCO4)CC2)nc1	-1%	-20%&-2%&-17%&-24%
CCc1ccc(CN2CCC(Oc3ccc(C(=O)NCc4ccccn4)cc3)CC2)o1	17%	?
O=C(O)CSCc1nc2ccccc2[nH]1	-23%	7%
CC(CN1CCOCC1)OC(=O)C(c1ccccc1)c1ccccc1 (stereo not given)	-1%	-7%

Molecules above with fluorine:
SMILES	N370S GC mod	DT40 TDP1 CPT
O=C(CNC(=O)c1ccccc1F)NCCOc1cccc(Cl)c1Cl	-1%	7%
CCN1CCN(Cc2ccc(NC(=O)c3ccc(C)c(NC(=O)c4nccnc4N)c3)cc2C(F)(F)F)CC1	17%	?
CCOC(=O)c1ccc(N2CCN(c3ccccc3F)CC2)c(NC(=O)Nc2ccccc2)c1	1%	16µM*
COc1ccc(OCC(O)CNCCNc2nccc(C(F)(F)F)n2)cc1 (stereo not given)	-19%	-6%
CCCC1(c2ccccc2)NC(=O)N(CC(=O)Nc2ccccc2C(F)(F)F)C1=O (stereo not given)	-19%	4%
O=C(Nc1nnc(COc2ccc(F)cc2)s1)c1cccs1	26%	-14%
Cc1nn(-c2ccccc2)c(Cl)c1/C=N/NC(=O)c1ccccc1F	2%	-25%

Remaining list, next part.
SMILES	N370S GC mod	DT40 TDP1 CPT
COc1ccccc1CN(C)C(=O)c1ccc(COc2ccccc2)cc1	-15%	16µM*
COc1cc2cc(C)c(SCC(=O)N3CCOCC3)nc2cc1OC	-1%	-22%
COc1cc2c(cc1OC)CN(C1CC(=O)N(c3c(C)cccc3C)C1=O)CC2 (stereo not given)	-12%	7%
CCc1ccc(S(=O)(=O)NCCc2cn3ccc(C)cc3n2)s1	-23%	5%
CCn1nc(C)c(/C=N\NC(=O)c2cccc(OC)c2)c1C	21%	9%
COc1ccc(N/N=C2/CCCCC2=O)cc1	-22%	-26%
CN(C)C(=O)N1CCCC(C(=O)NCc2ccc(F)cc2Cl)C1 (stereo not given)	-23%	-2%
CCC(C)NC(=O)CNC(=O)c1nn(-c2ccc(OC)cc2OC)c(=O)c2ccccc12 (stereo not given)	2%	-1%
O=C(NC(=S)N1CCN(c2ccccn2)CC1)c1ccccc1	-8%	5%
O=C(CSC1=NCCS1)Nc1cccc2ccccc12	8%	?
NC(=O)COC(=O)C1CSC2(c3ccc(F)cc3)CCC(=O)N12 (stereo not given)	-17%	-23%
COc1ccc(CCNC(=O)C2CCN(S(=O)(=O)c3ccc(-n4cnnn4)cc3)CC2)cc1OC	1%	-2%
CCOc1ccccc1N1CN(Cc2ccccc2)CNC1=S	7%	-17%
CC12CCC(=O)N1c1ccccc1C(=O)N2c1ccccc1 (stereo not given)	1%	?
Cc1c(C(=O)OCC(=O)N2C(C)CCCC2C)oc2ccccc12 (stereo not given)	0%	-14%
CCN(CC)S(=O)(=O)c1cccc(NC(=O)COC(=O)CCC(=O)c2cccs2)c1	-5%	-16%
CCCCOc1ccc(N2C(=O)CC(NCc3ccncc3)C2=O)cc1 (stereo not given)	8%	-13%
COc1cc(C2C(=O)N(C3CCCC3)CC(=O)N2Cc2ccco2)ccc1OC(C)C (stereo not given)	-2%	0%
NC(=O)c1ccccc1NC(=O)COc1ccc2c(c1)OCO2	-6%	8%
NC(=O)CCc1nc2cc(C(F)(F)F)ccc2n(Cc2ccccc2)c1=O	-6%	-15%

Sorted by molecular weight (falling): some entries from above
SMILES	N370S GC mod	DT40 TDP1 CPT
COc1ccc(CCNC(=O)C2CCN(S(=O)(=O)c3ccc(-n4cnnn4)cc3)CC2)cc1OC	1%	-2%
O=C(NC(=S)N1CCN(c2ccccn2)CC1)c1ccccc1	-8%	5%
CCn1nc(C)c(/C=N\NC(=O)c2cccc(OC)c2)c1C	21%	9%

(list continues)
SMILES	N370S GC mod	DT40 TDP1 CPT
CN(C)c1ccc(NC(=O)C(=O)C2C(=O)Nc3ccccc32)cc1 (stereo not given)	4%	-21%
CN(CC(=O)Nc1cccnc1)S(=O)(=O)c1ccccc1	2%	-24%
O=C(Nc1cc(F)cc(F)c1)c1ccc(NCCc2ccccc2)c([N+](=O)[O-])c1	11%	6%
COc1ccccc1C(=O)Oc1ccc2c(c1)O/C(=C\c1ccncc1)C2=O	-17%	-30%
CC(C)(C)NC(=O)C(c1ccc(O)cc1)N(C(=O)CCC(=O)Nc1nccs1)c1cccc(F)c1 (stereo not given)	?	10%
Cn1c(=O)n(C)c2cc(NC(=O)Cc3ccccc3[N+](=O)[O-])ccc21	-5%	4%
O=C(C1CCCN(C2CC(=O)N(c3ccc(Cl)cc3)C2=O)C1)N1CCCC1 (stereo not given)	2%	-16%
O=C(NCCC1=CCCCC1)C1CCN(S(=O)(=O)c2cccc3cccnc23)CC1	0%	-18%
CC(=O)Nc1ccc(NC(=O)COc2cccc3c2OC(C)(C)C3)cc1	5%	-16%
CCOC(=O)c1ccc(NC(=O)CSc2nnc(CNC(=O)c3ccccc3F)o2)cc1	1%	6%
O=C1CN(c2ccc(F)cc2)C(=S)N1c1ccccc1	-7%	11%
Cn1c2ccc(F)cc2c2nnc(SCCN3CCOCC3)nc21	-12%	1%
O=C(Nc1ccc(Nc2ccccc2)cc1)c1ccc(Br)cc1	7%	?
COC(=O)C1=C(O)/C(=C/c2cccc(OC)c2O)N=C1C	-3%	-18%
CC(C)CN(C(=O)CSc1nc(-c2ccccc2)cn1N)c1c(N)n(Cc2ccccc2)c(=O)[nH]c1=O	9%	-18%
Cc1ccc2c(-c3ccc([N+](=O)[O-])cc3)cc(=O)[nH]c2c1	5%	-11%
CN1CCN(CCCNC(=O)c2cn(C)c3ccc(S(=O)(=O)N(C)C)cc3c2=O)CC1	-5%	4%
COc1ccc(C=C2C(=O)OC(C)(C)OC2=O)cc1OC	-3%	-1%
Cn1c(Cc2ccccc2)n[nH]c1=S	5%	3%
CN(CC(=O)Nc1ccccc1Cl)C(=O)CSC(=S)N1CCCC1	7%	12%

Pulled one by one from above:
SMILES	N370S GC mod	DT40 TDP1 CPT
CN1CCN(CCCNC(=O)c2cn(C)c3ccc(S(=O)(=O)N(C)C)cc3c2=O)CC1	-5%	4%
O=C(C1CCCN(C2CC(=O)N(c3ccc(Cl)cc3)C2=O)C1)N1CCCC1 (stereo not given)	2%	-16%
CN(CC(=O)Nc1ccccc1Cl)C(=O)CSC(=S)N1CCCC1	7%	12%
CN(CC(=O)Nc1cccnc1)S(=O)(=O)c1ccccc1	2%	-24%

Later entries
SMILES	N370S GC mod	DT40 TDP1 CPT
C=C(C)CSc1nc(N)c2c(C)c(C)sc2n1	15%	-8%
COCCN(C(C)=O)c1nnc(-c2cnccn2)s1	-1%	-12%
COc1ccc(OCc2cc(C(=O)N3CCCCCC3)no2)c(Cl)c1	-7%	-17%
O=C(CN1C(=O)NC(Cc2c[nH]c3ccccc23)C1=O)Nc1cccc(S(=O)(=O)N2CCCC2)c1 (stereo not given)	7%	?
CC1(C)CC(=O)C/C(=N/Nc2nc3ccccc3s2)C1	6%	?
COc1cccc(-c2nnn(CC(=O)Nc3cc(OC)c(NC(=O)c4ccco4)cc3OC)n2)c1	-1%	?
CCCC(O)(CCN1CCOCC1)c1ccc(Cl)cc1 (stereo not given)	-10%	-28%
COc1ccc(C2c3c(-c4ccccc4)n[nH]c3C(=O)N2c2ccc(C(=O)O)cc2)cc1 (stereo not given)	7%	1%
CCCCn1c(N)c(N(CCOC)C(=O)COC(=O)COc2cccc(C(C)=O)c2)c(=O)[nH]c1=O	-5%	3%
CCOC(=O)Cn1c(=O)oc2cc(S(=O)(=O)NCCC(C)C)ccc21	0%	?
CCCc1nnc(SCC(=O)N2CCCC(C)C2)n1CCCOC (stereo not given)	1%	-7%
CCC12CN3CCN(CC(C3)/C1=N\NC(=O)c1ccc(C(C)(C)C)cc1)C2	-27%	-1%
CC(C)Cn1c2c(c(=O)[nH]c1=O)C(C(F)(F)F)(C(F)(F)F)N=C(CCC1CCCCC1)N2	12%	6.5µM*
Nc1ccc(C(=O)N/N=C/c2c[nH]c3ccccc23)cc1	-8%	6%
Cc1ccc(CSCCNC(=O)CN(c2ccccc2)S(C)(=O)=O)cc1	0%	3%
O=C(c1ccc(Cl)cc1)c1c[nH]c(C(=O)NNc2cccc(Cl)n2)c1	-14%	-43%
O=[N+]([O-])c1ccc(Sc2n[nH]c(-c3ccccc3)n2)nc1	2%	-6%
Cc1ccc(C2=NN(S(C)(=O)=O)C(c3ccc4c(c3)OCO4)C2)cc1 (stereo not given)	0%	21µM*
CCOc1ccc(OCC(=O)OCn2c(SC)nnc(C)c2=O)cc1	8%	-23%
O=C(/C=C\c1ccco1)Nc1ccc(N2CCN(C(=O)c3ccccc3)CC2)cc1	-14%	?
COc1ccccc1CCCNC(=O)C1CCC(=O)N(Cc2ccccc2F)C1 (stereo not given)	-22%	?
Cc1nn(-c2ccccc2)c(C)c1P(=O)(c1ccccc1)N(C)C (stereo not given)	2%	-8%
CCNC(=O)Nc1ccccc1C(=O)OC	7%	10%
Cc1cc(Cl)c(S(=O)(=O)NCc2cccnc2)cc1OCC(=O)NC1CCCCC1	4%	-25%
CN(C)c1ccc(C(=O)/C=C/c2ccc(Br)cc2)cc1	7%	-19%
CC1CC1C(=O)OCC(=O)Nc1ccccc1Oc1ccccc1 (stereo not given)	15%	?
CCOC(=O)c1c(C)[nH]c(C(=O)COC(=O)/C=C/c2ccc(OCC#N)c(OC)c2)c1C	-1%	-1%
O=C1CC2(CCN(C(=O)c3c(F)cccc3F)CC2)Oc2ccccc21	-1%	-20%
CS(=O)(=O)N(CC(O)CON=C1c2ccccc2-c2ccccc21)c1ccc(F)cc1 (stereo not given)	-2%	-22%
Cc1ccc(C(=O)N/N=C/c2ccc(-c3cccc(Cl)c3)o2)cn1	-11%	15µM*
